# Bead autofluor = counter-screen for toxin protease inhibitors: compound fluorescence | compound autofluorescence counterscreen, microsphere flow cytometry; stronger effect = higher value | fluorescence intensity (concentration not given with the values) | 360,000 tested, 3.1% active;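 active = at least 3 SD above the mean of all compounds, about 16000 in these data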;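 also: 100 nL of 1 mM stock went into each well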
# The depositor's hits bear a star.
SMILES,Bead autofluor
Clc1ccc(-c2cn(-c3nc4ccccc4s3)nn2)cc1,5578
COC(=O)N1CCCCC1c1cc(C(=O)Nc2ccc(OC)cc2C)no1 (stereo unspecified),3691
CN(Cc1ccccc1)C(=O)c1csc([C@@H]2O[C@H](CO)[C@H](O)[C@H](O)[C@H]2O)n1,3571
O=C(Nc1cc(C(F)(F)F)ccc1N1CCCCC1)C1=COCCO1,3866
COc1ccc(C(C)(NC(C)=O)c2nc(/C=C/c3ccccc3)cs2)cc1 (stereo unspecified),3003
CCc1nc2ccc(C(=O)N3CCN(S(=O)(=O)CC)CC3)cn2c1N(CC)C(=O)NCCc1ccccc1,3096
CC12CCCC(=O)C1CCC(=Cc1ccco1)C2=O (stereo unspecified),4037
COc1ccc(C(=O)NCCN2CCC(n3c(=O)[nH]c4ccccc43)CC2)cc1F,5691
COc1ccc(CCN2CC(=O)NC(=O)C2)cc1OC,3818
c1ccc(COc2ncnc3c2ncn3CCCNCC(c2ccccc2)c2ccccc2)cc1,3952
COc1ncnc2c1ncn2CCCNCC(C)c1ccccc1 (stereo unspecified),3948
COc1ccc(-c2ccc(C(=O)NC(C)C)c3occc23)c(C)c1,3113
COCCNC(=O)C1(C)CCCN(C(=O)c2ccc(C(=O)OC)cc2)C1 (stereo unspecified),3696
c1ccc(COc2ccc(-c3cc4nc(NCc5ccc6c(c5)OCO6)ccn4n3)cc2)cc1,3946
O=C(C1=NOC2(C1)C(=O)Nc1ccccc12)N1CCCCC1 (stereo unspecified),5126
CC(C)N1CC(C(=O)Nc2ccc(Cl)cc2Cl)CC1=O (stereo unspecified),3099
CNc1cncc(-c2cc(C)c(O)c(C)c2)n1,3563
CC(C)CCOc1ccc(C(=O)Nc2cc(S(=O)(=O)N3CCOCC3)ccc2N2CCOCC2)cc1,3009
Cc1cccc(C)c1-n1nnnc1C(c1ccnc2ccccc12)N1CCN(C(=O)OCc2ccccc2)CC1 (stereo unspecified),6006
CCC(C)c1cnc(CC(C)C)c(=O)n1O (stereo unspecified),5813

# Ordered by formula weight (descending): some entries from above.
SMILES,Bead autofluor
COCCNC(=O)C1(C)CCCN(C(=O)c2ccc(C(=O)OC)cc2)C1 (stereo unspecified),3696
COc1ncnc2c1ncn2CCCNCC(C)c1ccccc1 (stereo unspecified),3948
COc1ccc(-c2ccc(C(=O)NC(C)C)c3occc23)c(C)c1,3113
CC(C)N1CC(C(=O)Nc2ccc(Cl)cc2Cl)CC1=O (stereo unspecified),3099
O=C(C1=NOC2(C1)C(=O)Nc1ccccc12)N1CCCCC1 (stereo unspecified),5126
CNc1cncc(-c2cc(C)c(O)c(C)c2)n1,3563

# Going on with the list.
SMILES,Bead autofluor
COC(=O)[C@@]1(Cc2ccc(F)cc2)[C@H]2c3cc(C(=O)N(C)C)n(Cc4ccc(C)c(F)c4F)c3C[C@H]2CN1C(=O)c1ccccc1,6198
Cc1ccc(-n2c(=O)[nH]c3ccccc3c2=O)cc1[N+](=O)[O-],4405
CCOC(=O)N1CCN(C(=O)C2CCC(=O)N(Cc3ccccc3OC)C2)CC1 (stereo unspecified),2935
CC(C)C[C@H]1CNC(=O)C(=O)N1C[C@@H]1CCCN1C[C@H](Cc1ccc(O)cc1)N1C[C@H](Cc2ccccc2)N(CC2CCCCCC2)C(=O)C1=O,4402
CC(C)(C)c1ccc(C(=O)N2CCC2(C)C(=O)Nc2cccc(C#N)c2)cc1 (stereo unspecified),4027
C=CCCC(=O)N1C[C@H]2CCN(C)[C@H]2C[C@H]1c1ccccc1,5603
CN1CCN(C2CN(Cc3ccccc3)S(=O)(=O)C2)CC1 (stereo unspecified),6205
Cc1ccc(S(=O)(=O)N2CCOCC2)cc1NC(=O)CN(C)CC(=O)Nc1cccc(F)c1,3589
CSCCC(NC(=O)OCc1ccccc1)NC(=O)OCc1ccccc1,6107
CC1(C(=O)NS(=O)(=O)c2ccccc2Cl)CCN1C(=O)C1(c2ccc(Cl)cc2)CC1 (stereo unspecified),2971
CCCNC(=O)C1(C)CCCN(Cc2ccc(-c3ccccn3)cc2)C1 (stereo unspecified),3015
COc1ccc(-c2cnc3c(NC=O)cc(-c4cc(OC)c(OC)c(OC)c4)cn23)cc1OC,2915
C[C@@H]1CN([C@H](C)CO)C(=O)CCCn2nncc2CO[C@H]1CN(C)C(=O)c1ccncc1,3477
COc1ccc2ccc(OC)c(/C=N/NC(=O)c3cc4ccccc4o3)c2c1,3909
CCN(CC)C(=O)C1=C(C)N(CCCOC)C(=O)C(CC(=O)NCCCCc2ccccc2)C1 (stereo unspecified),3251
CCN1CCN(C(CCc2ccccc2)C(=O)NC2CCCCC2)CC1 (stereo unspecified),5429
Cc1ccc(S(=O)(=O)NC(=O)C2(C)CCN2C(=O)Cc2cccs2)cc1 (stereo unspecified),4020
C[C@@H]1CN([C@H](C)CO)C(=O)CCCn2nncc2CO[C@H]1CN(C)Cc1ccc2c(c1)OCO2,3622
COc1ccc(OC)c(S(=O)(=O)Nc2ccc3c(c2)OCCO3)c1,3383
CC(C)(C)OC(=O)[C@H](Cc1ccccc1)NC(=O)c1ncn2c1c(=O)[nH]c1ccc(Br)cc12,3795
CCN(CC(=O)Nc1ccccc1C(F)(F)F)CC(=O)c1[nH]c(C)c(C(C)=O)c1C,3025
CC(C)C(=O)Nc1cccc(S(=O)(=O)NC2=NCCC2)c1,4003
Cc1cc(Nc2ccc(F)cc2)c2ccccc2n1,3639
N#CC(c1cccc([N+](=O)[O-])c1)C(CC(=O)c1ccccc1)c1ccccc1 (stereo unspecified),3731
Cc1cc(C)n(-c2ccc(C(=O)N3CCN(S(=O)(=O)c4ccc(OC(F)(F)F)cc4)CC3)cc2)n1,4045
COc1ccc(-c2ccc(C(=O)NCc3ccccc3)c3occc23)c(C)c1,3699
Clc1ccc(-c2cccc3nccn23)c(Cl)c1,4208
CC1(C)CC(=O)C=C(Nc2ccc(O)cc2)C1,3100
CCC1(CC)NC(=O)N(CC(=O)OC(C)C(=O)Nc2ccc(S(N)(=O)=O)cc2)C1=O (stereo unspecified),3947
O=C(NC1CC1)c1cccc(NC(=O)C2CCN(S(=O)(=O)c3ccccc3C(F)(F)F)CC2)c1,4104
CCCCC[C@H](C)N1C[C@H](COCc2ccccc2)Oc2cc(N3CCC[C@@H]3CO)ccc2S1(=O)=O,6058
CC(=O)Nc1cc(-c2cccc(CO)c2)cn2c(-c3cccc(C(F)(F)F)c3)cnc12,3820
CC1=C(C(=O)N(C)C)CC(CC(=O)NCCCCc2ccccc2)C(=O)N1CCCN1CCCC1=O (stereo unspecified),2991
COc1ccc(CCN2C(=O)COc3ccccc3C2C(=O)NC(C)(C)C)cc1OC (stereo unspecified),4100
CC1(C(=O)O)CCCN1C(=O)c1ccco1 (stereo unspecified),2901
CC1(Cc2cccc(C#N)c2)C(=O)Nc2ccc(-c3cccc(C(F)(F)F)c3)cc21 (stereo unspecified),2913
CC1(C(=O)NS(=O)(=O)c2ccccc2Cl)CCN1C(=O)C1CCCCC1 (stereo unspecified),3908
CCCCN(C)C(=O)c1sc(=O)n(Cc2ccccc2F)c1C,5727
COc1ccccc1CNCCc1cccc(Cl)c1,3004
CCOC(=O)C1(C)CCCCCN1C(=O)c1ccc(C(=O)OC)cc1 (stereo unspecified),3908
Cc1ccccc1-c1csc(C(O)c2ccc(F)cc2)n1 (stereo unspecified),2900
CC1(C(=O)NS(=O)(=O)c2cccs2)CCN1C(=O)c1ccco1 (stereo unspecified),3562
C[C@@H]1CN([C@H](C)CO)C(=O)CCCn2nncc2CO[C@@H]1CN(C)C(=O)Nc1ccnc(N2CCOCC2)c1,2959
C[C@@H]1CN([C@H](C)CO)C(=O)CCCn2cc(nn2)CO[C@H]1CN(C)C(=O)Cc1ccccc1,3712
O=C1c2cccc(-c3ccc(C(F)(F)F)cc3)c2C2CCCCN12 (stereo unspecified),5204
COc1ccc(C(=O)N/C(=C\c2cn(S(=O)(=O)N(C)C)c3ccccc23)C(=O)N2CCN(C)CC2)cc1OC,3043
CC(C)Nc1ncnc2c1ncn2[C@H]1CN(Cc2ccc(Cl)cc2)C[C@@H](CO)O1,2942
COc1ccc(-c2nc3c(Cl)cc(C(F)(F)F)cn3c2Cc2ccsc2)cc1OC,5804
COc1ccc(C2=NN(CCC(=O)NC3CCCCC3C)C(=O)CC2)cc1 (stereo unspecified),3681
COc1ccc(NC(=O)Cn2nnc(-c3ccccc3)c2COc2ccc3ccccc3c2)cn1,3396
# (more compounds)
SMILES,Bead autofluor
COc1ccc(-c2cnc3c(NC=O)cc(-c4ccc(F)cc4)cn23)cc1OC,2987
COc1ccc(NC(=O)C2(C)Cc3c(-c4cccc(C(N)=O)c4)ccnc3O2)cc1 (stereo unspecified),3677
Cc1ccc([C@@H]2C[C@H]3[C@@H](CN2S(=O)(=O)c2ccc(C)cc2)C(=O)C[C@@H](c2ccc(Cl)cc2)N3S(=O)(=O)c2ccc(C)cc2)cc1,2989
COCCN1C(=O)COc2ccccc2C1C(=O)NC1CCCCC1 (stereo unspecified),5593
O=C(Nc1cccnc1)C1Cc2c(-c3cccc(F)c3)ccnc2O1 (stereo unspecified),3945
Nc1c(-c2cccs2)nc2ccccn12,5438
Cc1ccc(C)c(NC(=O)c2ccc3c(c2)CCN3S(C)(=O)=O)c1,3405
O=C(O)c1ccc(Cl)c(NC(=O)C2CCN(S(=O)(=O)c3cccs3)CC2)c1,2978
O=C1c2ccccc2C(c2nnnn2-c2ccc3c(c2)OCCO3)N1CCCN1CCOCC1 (stereo unspecified),4149
COc1cc(CC(=O)C(=O)O)oc(=O)c1,3944
O=C(NCc1ccccc1)C1c2ccccc2OCC(=O)N1Cc1ccco1 (stereo unspecified),5399
CCOC(=O)[C@]12CCC=C1N(Cc1ccc3c(c1)OCO3)C(=O)[C@H](CC(=O)N1CCC(c3ccccc3)CC1)C2,5507
Cn1nc(C2CC2)cc1NC(=O)C1(C)CCN1C(=O)CC(c1ccccc1)c1ccccc1 (stereo unspecified),3946
CC1(C)CC(=O)C=C(c2ccccc2-c2ccc3cc[nH]c3c2)C1=O,4219
O=C(CSc1nnc(CNC(=O)c2c(F)cccc2F)o1)NCc1ccc2c(c1)OCO2,3012
Cc1ccc(NC(=O)C2(C)CCN2C(=O)Cc2ccccc2)cc1C (stereo unspecified),3665
C[C@H](CO)N1C[C@H](C)[C@H](CN(C)C(=O)Nc2ccc(C(F)(F)F)cc2)OCc2cnnn2CCCC1=O,2917
O=c1c2ccccc2on1-c1ccccc1,3404
CSc1ccccc1CNC(=O)C1(C)CCCN1CC(C)C (stereo unspecified),4726
CC(=O)C1=C(O)C(=Cc2ccccc2)OC1=O,3668
CC1(C(=O)O)CCCN(C(=O)c2cccnc2Oc2ccccc2)C1 (stereo unspecified),3004
COc1ccc(-c2csc(C(C)(O)c3ccccc3)n2)cn1 (stereo unspecified),3609
C[C@H]1CCCCO[C@H](CN(C)Cc2ccc(C(=O)O)cc2)[C@@H](C)CN([C@@H](C)CO)C(=O)c2cc(NS(=O)(=O)c3cn(C)cn3)ccc2O1,3841
O=[N+]([O-])c1cc(Br)c2c(c1)CCN2,3749
CC(=O)c1nn(-c2ccccc2)c(=Nc2ccccc2)cc1C,4104
CC(=O)c1cccc(-c2ccc3c(c2)C(C)(Cc2ccc(S(C)(=O)=O)cc2)C(=O)N3)c1 (stereo unspecified),2900
CCOc1ccccc1NC(=O)COC(=O)COc1cccc2c1OC(C)(C)C2,4116
COCCCn1cc(CN2CC(N(C)C)CS2(=O)=O)nn1 (stereo unspecified),4382
O=C(Nc1nnc([C@@H]2O[C@H](CO)[C@@H](O)[C@H]2O)s1)Nc1ccccc1C(F)(F)F,3646
CCOC(=O)C1CCCN(C(=O)c2ccc3c(c2)CCO3)CC1 (stereo unspecified),4063

# Six records drawn at random from those above:
SMILES,Bead autofluor
CC(=O)c1nn(-c2ccccc2)c(=Nc2ccccc2)cc1C,4104
CCOC(=O)C1CCCN(C(=O)c2ccc3c(c2)CCO3)CC1 (stereo unspecified),4063
O=C(Nc1nnc([C@@H]2O[C@H](CO)[C@@H](O)[C@H]2O)s1)Nc1ccccc1C(F)(F)F,3646
CC(=O)c1cccc(-c2ccc3c(c2)C(C)(Cc2ccc(S(C)(=O)=O)cc2)C(=O)N3)c1 (stereo unspecified),2900
COCCCn1cc(CN2CC(N(C)C)CS2(=O)=O)nn1 (stereo unspecified),4382
CCOc1ccccc1NC(=O)COC(=O)COc1cccc2c1OC(C)(C)C2,4116

# The list goes on.
SMILES,Bead autofluor
CCCNC(=O)C1(C)CCCN(C(=O)c2ccc3c(c2)CCO3)C1 (stereo unspecified),3434
COc1ccc(-c2cnc3c(c2)C(=O)N([C@H](C)CO)C[C@@H](C)[C@H](CN(C)Cc2ccccc2)O3)cc1,3704
COc1ccc(C2C3=C(CCCC3=O)N(CC(=O)O)C3=C2C(=O)CCC3)cc1Br,3891
CN1CCN(c2ccc(S(=O)(=O)N3CCCCC3)cc2NC(=O)CSC(C)(C)C)CC1,4170
COc1ccc2c(c1OC)C(CC(C)=O)N1CCc3cc4c(cc3C1C2=O)OCO4 (stereo unspecified),4042
COc1cccc(Nc2nc(C(N)CC(C)C)cs2)n1 (stereo unspecified),3773
Cc1cccc(NS(=O)(=O)c2ccc(S(=O)(=O)N3CCCC3)cc2)c1,3846
CC1CCN(C(=O)c2ncn3c2c(=O)[nH]c2ccc(Br)cc23)CC1,3560
CCOc1ccccc1-c1cc(NC)ncn1,3603
CC(=O)Nc1cccc(-c2ccnc3c2CC(C(=O)NCC2CC2)O3)c1 (stereo unspecified),3673
CC1(C(=O)NCc2ccc(F)c(F)c2)Cc2c(-c3cccc(C(F)(F)F)c3)ccnc2O1 (stereo unspecified),4001
O=C(c1ccncc1)N1CCN(c2cc(-c3ccccc3)nc3cc(-c4cccc(Cl)c4)nn23)CC1,3890
Cc1ccc(S(=O)(=O)N2C[C@H]3n4c(=O)ccc(=O)n4C[C@H](OC(=O)NCc4ccco4)[C@@]3(O)C2)cc1,2772

# Assay outcomes from PubChem.

# Only part of the results is shown; count on the stated rates, not on these rows.
